HSD17B inh: blocks hydroxysteroid 17-beta dehydrogenase activity. Potency, µM (highest dose often 57.1 µM), without a hit: at the top dose activity change, negative = inhibition, hits mostly inhibitors. hit rate 7.6% among 75,000. Q99714. recombinant HSD17B10, NADH fluorescence kinetic; many of its hits are not listed in these tables; active = well fitted inhibition curve with a large enough effect; inconclusive = small, poorly fitted or top-dose-only effect; inactive = no such curve, though single readings can be large or run the other way;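 note: the protocol describes HADH2 (HSD17B10) and not the HSD17B4 of the title; nearly all actives have a fitted effect of over 70% in size; most hits overshoot -100% by far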
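Enzyme plus compound, 15 min room temperature; substrate mix added (NAD+ 1 mM, beta-hydroxybutyryl-CoA 90 uM final); plates read kinetically for NADH fluorescence. HADH2 was His-tagged, E. coli-derived, 20 nM.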
Starred values were filed as active, the others as inactive; ? = inconclusive; & = joins results of further samples; [ ] = another dose, or the depositor's remark. % is set by controls: 0 for no effect and ±100 for the full control effect; potency is the fitted concentration of half-maximal effect. These rows are one share of the data; the hit share may differ from the screen's.

compound	HSD17B inh
CCN1CCN(c2nc3sc4c(c3c3ncnn23)CC(C)CC4)CC1 (centres undefined)	-1%
c1ccc(-c2nc3ccccc3c3nncn23)cc1	8%
CCN1C(=O)[C@H]2[C@H]3[C@H](O)[C@H](O)C/C(=N/OC)[C@@H]3CC[C@@H]2C1=O	3%[11.4 µM]
COCC(=O)OCn1nnc2ccccc2c1=O	1%
CCOc1cccc(C2C(C#N)=C(N)Oc3cc(C)n(Cc4ccccn4)c(=O)c32)c1OCC (centres undefined)	-12%
CCOc1ccc2nc(SCC(=O)NCc3ccco3)sc2c1	-10%
Cc1cc(C(=O)OCC(=O)NC(=O)NC(C)(C)C)c(C)o1	0%
CCC(C)(C)n1nnnc1C(CC(C)C)N1CCC(C(N)=O)CC1 (centres undefined)	2%
COc1ccc(OCC(=O)OCCN2C(=O)c3ccccc3C2=O)cc1	-20%
CN(C)CN1C(=O)S/C(=C2/C(=O)N(CN(C)C)c3ccccc32)C1=O	-4%[11.4 µM]
O=C(O)C1CSC(c2ccncc2)N1 (centres undefined)	1%
Cc1nn(C)c(C)c1S(=O)(=O)N(CC(=O)NCc1ccco1)c1ccc(C(C)C)cc1	-7%

3 records drawn at random from those above:
compound	HSD17B inh
COCC(=O)OCn1nnc2ccccc2c1=O	1%
CCC(C)(C)n1nnnc1C(CC(C)C)N1CCC(C(N)=O)CC1 (centres undefined)	2%
CCOc1cccc(C2C(C#N)=C(N)Oc3cc(C)n(Cc4ccccn4)c(=O)c32)c1OCC (centres undefined)	-12%

Following part:
compound	HSD17B inh
N=c1n(CCN2CCCCC2)c2ccccc2n1CC(O)c1cccc(Br)c1 (centres undefined)	-6%
CCC/C=C(\CCC)C(NC(=O)OCC(C)C)c1ccccc1 (centres undefined)	-6%
CC(=O)NC(CCS(C)(=O)=O)C(=O)Nc1ccc(Oc2ccccc2)cc1 (centres undefined)	6%
COc1ccc(OCCN(C)Cc2ccccc2)cc1	3%
O=C(O)CCN1C(=O)c2ccncc2C1=O	11%
CC(C)CNC(=O)c1cccc(Cn2cc(Cl)cn2)c1	0%
COc1ccc(NC(=O)C2C(=O)N(CCO)C3(C)CC2c2ccccc2O3)cc1 (centres undefined)	11%
CN1c2ccccc2C(C)(C)C12C=Cc1cc(O)ccc1O2 (centres undefined)	-12%
Nc1nccc(Nc2ccc(S(N)(=O)=O)cc2)n1	4%[11.4 µM]
CC(C)NC(=O)N1CC[C@@]2(CCCN(C(=O)c3cc(C(F)(F)F)cc(C(F)(F)F)c3)C2)C1	6%
Cc1nnc2ccc(Oc3ccc(-c4ccccc4)cc3)nn12	-4%
N#Cc1cccc(NC(=O)COc2ccc(-n3ccnc3)cc2)c1	14%
CC(=O)N1CCN(C(=O)CNc2cc(C(F)(F)F)ccc2OCC(F)(F)F)CC1	1%
CCOc1cc(C(=O)OCC(=O)c2c(C)[nH]c3ccccc23)ccc1OCC(=O)N1CCOCC1	10%
O=C(O)C1CCCCC1C(=O)NCCc1ccccc1 (centres undefined)	0%
Cc1onc(-c2ccccc2)c1C(=O)Nc1ccnn1C1CCCCC1	-1%
COc1ccccc1CNC(=O)C1CCN(c2nc3ccccc3o2)CC1	3%
CC1=CC=CC2=NC(=O)CC(C)(C(=O)N(CC(=O)NC(C)C)C3CCCC3)N12 (centres undefined)	25µM*
CCCn1c(SCC(=O)Nc2nnc(-c3ccccc3)s2)nnc1-c1ccccn1	-4%
CCc1ccccc1NC(=O)c1cnccn1	-8%
CCOC(=O)c1c(C)n(C)c2ccc(OCC(O)Cn3nc(C)c(Br)c3C)cc12 (centres undefined)	0%
CN(C)c1ccc(P(=O)(OC2CCCCC2)C(O)c2cccnc2)cc1 (centres undefined)	10%
COc1ccc(C2Sc3nncn3N2Cc2ccc(C#N)cc2)cc1 (centres undefined)	-11%
O=C(NC1CCN(C(=O)NC2CCCCC2)CC1)c1ccco1	4%
CCOc1ccc(CCNC(=O)Cc2nn[nH]n2)cc1OCC	11%
O=C(CN1C(=O)c2ccccc2C1=O)N1CCCCC1	8%
O=C(O)CNC(=O)c1ccc(CO)o1	-2%
Cn1c2c(c3ccccc31)CCSC2=O	-10%
COC(=O)c1c(C)oc2cc(Br)c(OCC(=O)C(C)(C)C)cc12	1%
COc1cccc(N2CCN(CC(=O)NCc3cccs3)CC2)c1	0%
CCn1cc(C(=O)NCc2cccs2)c(=O)c2cc(S(=O)(=O)N3CCOCC3)ccc21	-5%
CCOC(=O)N1CCN(S(=O)(=O)c2ccc3c(c2)CCN3C(=O)CC)CC1	0%
CCOC(=O)c1sc(NC(=O)CSc2nnc(C(C)C)n2CC)nc1C	-1%
O=S(=O)(c1cccc2c(Cl)cccc12)N1CCCNCC1	-9%&-2%
CCCNC(=O)C1CC(=O)N(c2ccc(OCC(=O)Nc3cccc(C)c3C)cc2)C1 (centres undefined)	0%
CCOc1cc(S(=O)(=O)n2cc(-c3ccc(F)cc3)c(N)n2)cc(OCC)c1OCC	-16%

2 entries from above, with each value named:
CCOc1ccc(CCNC(=O)Cc2nn[nH]n2)cc1OCC
  HSD17B inh: 11%

O=C(CN1C(=O)c2ccccc2C1=O)N1CCCCC1
  HSD17B inh: 8%

New compounds follow
compound	HSD17B inh
CCn1c(SCC(N)=O)nnc1-c1ccc(OC)c(OC)c1	1%
CCOC(=O)CN1C(=O)C(O)=C(C(C)=O)C1c1ccc(F)cc1 (centres undefined)	-5%
CC(=O)C1=C(O)C=C2Oc3c(C(C)=O)c(O)c(C)c(O)c3[C@]2(C)C1=O	-2%
COC(=O)COc1ccc(S(=O)(=O)Nc2cc(OC)ccc2OC)cc1	2%
O=C(O)Cn1ccnc1	3%
N#Cc1cc(-c2ccccc2)nn1-c1ccccc1	25µM*
N#Cc1c(-c2ccco2)nc(SCC(=O)Nc2cccc(Cl)c2)[nH]c1=O	?
CC1CCN(S(=O)(=O)N2CCC(C(=O)N3CCC(N(C)CC4CCCO4)CC3)CC2)CC1 (centres undefined)	3%
Cc1cc(C(=O)Cn2nnc3ccccc3c2=O)c(C)n1-c1c(C)n(C)n(-c2ccccc2)c1=O	2%
O=C(c1ccccc1/S(=N/S(=O)(=O)c1ccccc1)N1CCOCC1)N1CCOCC1 (centres undefined)	4%
O=C(CN1C(=O)c2ccccc2S1(=O)=O)N1CCN(c2ccccc2)CC1	-2%
CCC(=O)N1CCc2cc(S(=O)(=O)NC(C(=O)Nc3cccc(C)n3)C(C)C)ccc21 (centres undefined)	1%

Some of the entries so far, with each value named.
SMILES: N#Cc1c(-c2ccco2)nc(SCC(=O)Nc2cccc(Cl)c2)[nH]c1=O
  HSD17B inh: ?

SMILES: CC1CCN(S(=O)(=O)N2CCC(C(=O)N3CCC(N(C)CC4CCCO4)CC3)CC2)CC1 (centres undefined)
  HSD17B inh: 3%

SMILES: Cc1cc(C(=O)Cn2nnc3ccccc3c2=O)c(C)n1-c1c(C)n(C)n(-c2ccccc2)c1=O
  HSD17B inh: 2%

Continuation:
compound	HSD17B inh
CCOc1ccc(-c2nnc(SCC(=O)N3CCN(c4ccccc4)CC3)o2)cc1	6%
COCCCNC(=O)C1CCN(S(=O)(=O)N(CC(C)C)CC(C)C)CC1	12%
COc1ccc(NC(=O)CSc2nnc(-c3ccccn3)n2N)c(OC)c1	8%
COC(=O)CNC(=O)c1ccc(=O)oc1	171%[activator]
Cn1nc(C(C)(C)C)cc1C(=O)NCc1ccc(N2CCCC2=O)cc1	0%
N#Cc1cn(CC(=O)NCc2cccnc2)c2ccccc12	3%
CC1Cc2ccccc2N1C(=O)C1CCCN1S(=O)(=O)c1ccc(Cl)cc1 (centres undefined)	-2%
CSCCC(NS(=O)(=O)/C=C/c1ccccc1)C(=O)N1CCC(C)CC1 (centres undefined)	-3%
CC1CC(=O)C2=C(C1)OC(N)=C(C#N)C2c1coc2ccccc2c1=O (centres undefined)	5%
CCOC(=O)c1[nH]cnc1C(=O)Nc1cccc(N)n1	-3%
CC(=O)NC1CC(C)(C)N(OC(C)=O)C(C)(C)C1	-10%
CCOC(=O)N1CCN(C(=O)c2n[nH]c(=O)c3ccccc23)CC1	0%
Cc1ccc(NC(=O)Cn2nnc(C(=O)NCc3ccccc3)c2N)cc1C	3%
COCCNc1nnc(SCC(=O)c2ccc3c(c2)OCO3)s1	-3%
CCN1C(C)=C(C(=O)OC)C(c2ccccc2)N2C(=O)[C@](O)(C(=O)OC)C(c3ccccc3)C(C(=O)c3ccccc3)=C12 (some centres undefined)	0%[11.4 µM]
CCOC(=O)C(C)n1cnc2sc3c(c2c1=O)CCC3 (centres undefined)	-1%
O=C(Nc1ccccc1)N1CCCC(c2nc(-c3cccs3)no2)C1 (centres undefined)	6%
CCCn1c(=O)c2[nH]c(-c3ccc(S(=O)(=O)O)cc3)nc2n(CCC)c1=O	13µM*
COc1ccc(CNc2cc(C)ccc2C)c(OC)c1OC	10%
CCNc1nc(SCCOc2ccccc2)nc(N(C)C)n1	-13%
CCC(C)NC(=O)C1(C)CCC(=O)N1Cc1ccccc1OC (centres undefined)	1%
C=CCOC(=O)C1=C(C)NC2(O)c3ccccc3C(=O)C12O (centres undefined)	7%
COc1ccc(OC)c(C(=O)Cn2nnc3ccccc3c2=O)c1	1%
O=C(c1ccco1)N1CCN(c2nc(C(F)(F)F)nc3c2nnn3Cc2ccccc2)CC1	32µM*
CC1(C)CC(=O)N(CC(=O)O)c2ccccc2S1	3%
Cn1c(NCc2ccccc2Cl)nc2ccccc21	2%
NC(=O)c1ccccc1NC(=O)c1ccccc1F	6%
O=C(O)CCCC(=O)N(Cc1ccccc1)Cc1ccccc1	3%
CC(C)Oc1ccc(C(=O)N2CCCc3ccccc32)cc1	-3%
O=c1[nH]c(=S)[nH]nc1Cc1ccccc1	-14%
CCCCN(C)S(=O)(=O)c1ccc(C(=O)Nc2nnc(CSC)o2)cc1	-3%
CC(C)Cn1cc(C(=O)N2CCN(c3ccccn3)CC2)c2c3ccccc3n(C)c2c1=O	32µM*
O=C(Nc1ccc(F)c(F)c1)c1cccnc1	0%
Cc1cc(=O)oc2cc(O)cc(O)c12	13µM*
O=c1c(CCc2ccccc2)nc2cncnc2n1Cc1ccccc1Cl	-14%
Cc1c(NC(=O)C2CCCN2S(=O)(=O)c2ccc(Cl)cc2)c(=O)n(-c2ccccc2)n1C (centres undefined)	-5%
COC(=O)c1cccc(COC(=O)CNC(=O)c2ccco2)c1	3%
CN(C)/C=N/c1c(C(=O)NCc2ccccc2)nnn1Cc1ccccc1	-2%
Cc1cc(C(=O)Nc2sc(C)c(-c3ccc(F)cc3)c2C(N)=O)no1	?
O=C(Nc1ccc2oc(Cc3ccc(Cl)cc3)nc2c1)c1cccnc1	-10%
CCc1c(C(=O)NC2CCCCC2)[nH]c(C)c1C(C)=O	9%
COc1cccc(C(=O)NCCN2CCN(c3ccc(Cl)cc3)CC2)c1	3%
COc1cc(C(=O)N(C)c2nnc(-c3cccnc3)s2)cc(OC)c1OC	106%[activator]
COc1cc2c(cc1NC(=O)CSc1nnc(Cc3cccs3)n1C)oc1ccccc12	6%
NC(=O)c1cc[n+](CC2=C(C(=O)[O-])N3C(=O)[C@@H](NC(=O)Cc4cccs4)[C@@H]3SC2)cc1	?
COc1cccc(C(=O)CSc2nnnn2C)c1	-6%
Cc1ccc2c(c1)-c1c(cnn1CC(=O)Nc1ccccc1N1CCN(C)CC1)CO2	2%
COc1ccc2[nH]c(C)c(CCN3C(=O)C4C5C=CC(C5)C4C3=O)c2c1 (centres undefined)	1%
CCCn1c(SC2C(=O)CC(C)(C)CC2=O)nc2c1c(=O)n(C)c(=O)n2C	-1%
Cc1noc(C)c1C(=O)N1CCC2(CCCN(Cc3ccc(C#N)cc3)C2)CC1	5%
CCOc1ccc(OCC)c(NC(=O)CCCN2C(=O)c3cccnc3C2=O)c1	4%
Cc1ccc(C(C(=O)NC2CCCC2)N(Cc2ccco2)C(=O)CCC(=O)Nc2ccccn2)cc1 (centres undefined)	-13%
COc1ccc2ccccc2c1C1CC(=O)N2CN(C3CCCCC3)CSC2=C1C#N (centres undefined)	16µM*
Cn1c(C(C#N)C(=O)c2sc3ccccc3c2Cl)nc2ccccc21 (centres undefined)	0%
O=C(OCc1nnc(-c2ccccc2)o1)c1ccco1	7%
O=C(O)C1C(C(=O)O)C(C(=O)O)C1C(=O)O (centres undefined)	8%[11.4 µM]
O=C(NCc1ccco1)c1cccc(F)c1	-2%
CC1Cc2ccccc2N1S(=O)(=O)c1cccc(C(=O)NCCCO)c1 (centres undefined)	6%
CC(=O)N1CCC2(CCCN(c3ccc(-c4ccccc4)cc3)C2)CC1	25µM*
O=C(CCOc1ccccc1)OCC(=O)c1cc2ccccc2o1	-2%
CCOC(=O)C1CCN(S(=O)(=O)c2cccc3nonc23)CC1	-2%
O=C(CCCN1C(=O)c2ccccc2C1=O)NCCCN1CCOCC1	7%
C=CCN(CC=C)S(=O)(=O)c1ccc2nc(NC(=O)C(C)C)sc2c1	-25%

Compound activity: PubChem, National Center for Advancing Translational Sciences (NCATS)
